Vaccinia mCherry = inhibitors of vaccinia virus infection (mCherry reporter signal) | Vaccinia virus mCherry reporter infection, fluorescence; about a quarter of the inactives have no number | Potency, µM (titrated, usually from 36.5 µM), for inactives: top-dose activity change, negative = inhibition, hits mostly inhibitors | 310,000 tested, 0.63% active | AID 720579; active = well fitted inhibition curve with a large enough effect; inconclusive = small, poorly fitted or top-dose-only effect; inactive = no such curve, though single readings can be large or run the other way; tested in A549 cells; further: nearly all actives have a fitted effect of over 35% in size; inactives centre near -10
VACV Venus inh = vaccinia inhibition (Venus reporter). Potency, µM (top dose mostly 36.5 µM), inactives show at the top dose activity change, negative = inhibition, usual class: inhibitors. Vaccinia virus Venus reporter expression, fluorescence. 330,000 tested, 0.46% active; active means well fitted inhibition curve with a large enough effect; inconclusive means small, poorly fitted or top-dose-only effect; inactive means no such curve, though single readings can be large or run the other way; tested in A549 cells; further: nearly all actives have a fitted effect of over 30% in size; inactives centre near -10
Numbers without * were called inactive; i = inactive; ? = inconclusive; . = not tested or not shown; & = joins results of further samples; [ ] = dose if it differs, or a comment. On the % scale 0 is the no-effect control and ±100 the full control effect; potency means the concentration at half of the fitted maximal effect. Compounds were not picked by outcome. About 0.87% of those tested had a hit in this group.

Order of results – Vaccinia mCherry, VACV Venus inh
#1 COc1ccccc1-c1ccc(=O)n(CC(=O)NC(C)(C)C)n1
  i, -6%
#2 CC1(C)CC2CC(C)(CN2C(=O)C23CCC(C)(C(=O)C2)C3(C)C)C1 (stereo not given)
  i, 3%
#3 COc1ccc(C(CNC(=O)c2ccc(NS(=O)(=O)c3ccc(F)cc3)cc2)N2CCOCC2)cc1 (stereo not given)
  i, -11%
#4 CCOc1ccccc1N1CC(c2nc3ccccc3n2CCOc2ccccc2OC)CC1=O (stereo not given)
  ?, -15%
#5 Cc1ccc(C)c(N2CCN(CCCNC(=O)Cn3cccc3C(=O)c3ccccc3C)CC2)c1
  ?, ?
#6 Cc1c(C(=O)NCCCc2ccncc2)cnn1-c1nccc(-c2ccccc2F)n1
  ?, ?
#7 C=CCn1c(SCC(=O)c2c(N)n(C)c(=O)n(C)c2=O)nc2sc(CC)cc2c1=O
  ., -8%
#8 CCN1CCN(c2ncnc3c2c(-c2ccccc2)cn3-c2ccc(F)cc2)CC1
  -9%, -3%
#9 Cc1cc(-c2ccc(Cl)cc2)c(C#N)c(N)n1
  -3%, -7%
#10 Cc1ccc(C)c(N2CCN(S(=O)(=O)c3cc(-c4cc(C)no4)ccc3C)CC2)c1
  -21%, -21%
#11 CC(=O)C(=Cc1ccccc1)c1ccccc1
  6%, -7%
#12 Cc1cc(C)c(C(=O)Nc2ccc(S(=O)(=O)Nc3ccccn3)cc2)c(C)c1
  -2%, -1%
#13 CSCC[C@H](NC(=O)N1CCn2c1nc1ccccc12)C(=O)N[C@@H](C(=O)O)c1ccccc1
  12%, 2%
#14 O=C(NN1C(=O)C2C3c4ccccc4C(c4ccccc43)C2C1=O)C1CC1 (stereo not given)
  i, -6%
#15 O=S(=O)(c1ccc(Cl)cc1)N1Cc2ccccc2-n2nncc2C1
  -1%, -12%
#16 O=C(/C=C/c1ccc([N+](=O)[O-])o1)NNC(=O)c1ccc(F)cc1
  ?, ?
#17 Cc1c(C)n(CC(O)CN2CCCCCC2)c2ccccc12 (stereo not given)
  -18%, -10%
#18 O=C(CN1C(=O)COc2ccc(S(=O)(=O)N3CCCCCC3)cc21)N1CCN(c2ccccc2F)CC1
  -2%, -2%
#19 COc1cc(NC(=O)CCc2nc(-c3cccs3)no2)cc(OC)c1OC
  -14%&-25%, -12%&-15%
#20 COc1ccccc1CNC(=O)C(C)n1ccc2cc(S(=O)(=O)N3CCCC3)ccc21 (stereo not given)
  -16%, -16%
#21 Nc1cc(=O)[nH]c(SC/C=C/c2ccccc2)n1
  ., -20%
#22 CC/C(=N\N1CCCCCC1)c1c(O)n(-c2ccccc2C)c(=O)[nH]c1=O
  ?, -20%
#23 O=C(c1cccc([N+](=O)[O-])c1)c1ccc2[nH]c(=O)[nH]c2c1
  ?, -12%
#24 Oc1ccc(Br)cc1CNn1cnnc1
  -15%, -11%
#25 CCN(c1ccccc1)S(=O)(=O)c1ccc(Cl)c(C(=O)OCC(=O)NC(=O)C(C)C)c1
  i, -7%
#26 COc1ccc([C@H]2/C=C\CN(S(=O)(=O)/C=C/c3ccccc3)[C@@H](C)C(=O)N2Cc2ccc(F)cc2)cc1
  i, -9%
#27 Cc1cc(S(=O)(=O)N2CCOCC2)ccc1OCC(=O)Nc1ccc(F)cc1
  -6%, -6%
#28 C=CCC1(Cc2ccsc2)C(=O)NC(=O)NC1=O
  -2%, -7%
#29 CC(=O)c1ccc(NC(=O)CN2C(=O)COc3ccc(Cl)cc32)cc1
  -7%, 2%
#30 CN(Cc1ccccc1)Cc1ccccc1C(O)c1ccccc1 (stereo not given)
  -15%, -10%
#31 S=C(NC1CCCCC1)N(CCc1nc2ccccc2[nH]1)C1CCCC1
  -20%, -18%
#32 CC1CC1C(=O)Nc1nc2ccc(S(C)(=O)=O)cc2s1 (stereo not given)
  ?, -30%
#33 CC(NC(=O)COC(=O)Cc1ccc(Cl)cc1)c1ccccc1 (stereo not given)
  -8%, -2%
#34 O=C(Oc1ccc([N+](=O)[O-])cc1)C1CC(=O)N(c2ccc3c(c2)OCCO3)C1 (stereo not given)
  i, -10%
#35 COc1ccccc1CC(Cc1nc2ccccc2[nH]1)c1nc2ccccc2[nH]1 (stereo not given)
  -8%, -6%
#36 CSc1ncccc1C(=O)Nc1ccc(S(=O)(=O)NC2=NCCCCC2)cc1
  i, -10%
#37 C[C@H]1CCC[C@H](O)CCCCCc2cc(O)cc(O)c2C(=O)O1
  -23%, ?
#38 Cn1c(=O)[nH]c(=O)c2c1nc(N1CCCCC1)n2CCSc1ncccn1
  i, 1%
#39 COc1ccc(CCC(=O)OCC(=O)Nc2ccccc2)cc1
  i, 8%
#40 COc1cc2c(cc1OC)C(C)N(S(=O)(=O)c1cn(C)c(C)n1)CC2 (stereo not given)
  i, 22%

4 entries from above, with one line to a screen:
18: O=C(CN1C(=O)COc2ccc(S(=O)(=O)N3CCCCCC3)cc21)N1CCN(c2ccccc2F)CC1
19: COc1cc(NC(=O)CCc2nc(-c3cccs3)no2)cc(OC)c1OC
20: COc1ccccc1CNC(=O)C(C)n1ccc2cc(S(=O)(=O)N3CCCC3)ccc21 (stereo not given)
21: Nc1cc(=O)[nH]c(SC/C=C/c2ccccc2)n1
assay / compound,18,19,20,21
Vaccinia mCherry,-2%,-14%&-25%,-16%,.
VACV Venus inh,-2%,-12%&-15%,-16%,-20%

Other structures:
Order of results – Vaccinia mCherry, VACV Venus inh
#41 COc1ccc(Cn2c(=S)[nH]c3cc(OC)c(OC)cc3c2=O)cc1
  2%, -6%
#42 CCOc1ccc(-c2n[nH]c(C)c2Oc2ccc(OC)cc2)c(O)c1
  -11%[1.46 µM], -24%
#43 COCCNC(=O)C(c1ccc(O)cc1)N(Cc1ccccc1)C(=O)CCC(=O)Nc1ccccn1 (stereo not given)
  3%, -7%
#44 Cc1ncc2c(c1OC(=O)c1ccc([N+](=O)[O-])cc1)COC(C)(C)OC2
  ., -27%
#45 Cc1ccc(SCc2[nH]nc3c2C(c2ccco2)C(C#N)=C(N)O3)cc1 (stereo not given)
  i, -10%
#46 COC(=O)C1=C(C)N(C)C(C)=C(C(=O)OC)C1c1ccccn1
  ., ?
#47 C=C1N2CCC(CC2)C1(O)c1ccccc1C (stereo not given)
  ., -23%
#48 C=CCN1C(=O)C(Cc2ccccc2)SC1=Nc1ccc(C(=O)O)cc1 (stereo not given)
  -15%, -10%
#49 CCOc1ccc(NC(=O)CC2C(=O)N(c3ccc(OC)cc3)C(=O)N2CCc2cccs2)cc1 (stereo not given)
  -17%, -10%
#50 CCCCCCCCCCC/C=C\C(C)(C)/C=C\CCCC(=O)O
  -15%[3.33 µM], -8%[3.33 µM]
#51 O=C(/C=C/c1ccc(Br)cc1)c1ccco1
  -9%, -12%
#52 CCn1c(SCC(=O)N(C)CC(=O)Nc2ccc(F)c(F)c2F)nnc1-c1ccco1
  -17%, -12%
#53 O=C(CCC(=O)N1CCCC1)Nc1ccc(Cl)c(Cl)c1
  -7%, -11%
#54 Cc1ccc([N+](=O)[O-])cc1N/C=C/C(=O)c1ccco1
  -28%, -20%
#55 Cc1cccc(-n2c(=O)c3c(c4cc(C)ccc4n3C)n(CC(=O)NCC3CCCO3)c2=O)c1 (stereo not given)
  -5%, -12%
#56 Cc1ccc(N(C(=O)CCC(=O)Nc2cc(C)on2)C(C(=O)NC2CCCC2)c2cccs2)cc1 (stereo not given)
  -3%, 1%
#57 Cc1nn(C(C)C(=O)NCCN2CCCCCC2)c(=O)c2nn(-c3ccccc3)c(C)c12 (stereo not given)
  i, -18%
#58 CCCN1C(=O)SC(CC(=O)Nc2cccc3ccccc23)C1=O (stereo not given)
  ., 16%
#59 O=C(CCCCCCN1C(=O)c2ccccc2C1=O)N1CCC(c2ccccc2)C1 (stereo not given)
  -12%, -6%
#60 Cc1c(NC(=O)Nc2ccc(Cl)cc2)c(=O)n(-c2ccccc2)n1C
  i, -7%

Reformatted in transposed form: part of the list above
[12] Cc1cc(C)c(C(=O)Nc2ccc(S(=O)(=O)Nc3ccccn3)cc2)c(C)c1
[54] Cc1ccc([N+](=O)[O-])cc1N/C=C/C(=O)c1ccco1
[8] CCN1CCN(c2ncnc3c2c(-c2ccccc2)cn3-c2ccc(F)cc2)CC1
[51] O=C(/C=C/c1ccc(Br)cc1)c1ccco1

Compound	12	54	8	51
Vaccinia mCherry	-2%	-28%	-9%	-9%
VACV Venus inh	-1%	-20%	-3%	-12%

New compounds follow
Order of results – Vaccinia mCherry, VACV Venus inh
#61 COc1ccc(C2(CNC(=O)c3ccc(OCC(C)C)cc3)CCOCC2)cc1
  -10%, -23%
#62 CCN1CCC(O)(c2ccccc2)C(C(=O)c2ccccc2)C1 (stereo not given)
  ?, 0%
#63 CC1CCc2c(sc3nc(CN4CCOCC4)nc(Sc4ccccc4)c23)C1 (stereo not given)
  -1%, -13%
#64 Cc1cccc(CNC(=O)c2ccc(NC(=O)N3CCSc4ccccc43)cc2)c1
  -1%, -5%
#65 CCCC(=O)N1CCC1(C)C(=O)Nc1ccccc1-c1ccccc1 (stereo not given)
  i, 0%
#66 CCn1c(=O)c(C(C)=O)nc2ccccc21
  ., 68%[activator]
#67 O=C(Cc1ccccc1)NN1C(=O)C2C3C=CC(C4CC34)C2C1=O (stereo not given)
  i, -15%
#68 O=C(NC12CC3CC(CC(C3)C1)C2)c1cccc(OC(F)F)c1
  ?, -28%
#69 COc1ccccc1OCc1nc(C#N)c(NCc2ccc(C)cc2)o1
  -10%, 8%
#70 COc1ccc(CC(=O)OCC(=O)NCCc2ccccc2)cc1OC
  -14%, -7%
#71 O=C(O)C1CCN(C(=O)CSc2nc3ccccc3c(=O)n2Cc2ccccc2)CC1
  -12%, -3%
#72 O=c1c2ccccc2nc(/C=C/c2cccnc2)n1CCc1ccccc1
  i[7.34 µM], 0%[7.34 µM]
#73 O=c1cccc2n1CC1CC2CN(S(=O)(=O)c2ccccc2)C1 (stereo not given)
  -17%, -11%
#74 O=C(O)c1cccc(-c2csc(C(O)c3ccc(F)cc3)n2)c1 (stereo not given)
  -14%, 7%
#75 CN(Cc1cccs1)c1nc(-c2cccnc2)nc2ccccc12
  -15%, -19%
#76 CC(=O)c1ccc(OCC(=O)Nc2nnc(C3CC3)s2)cc1
  -23%, -7%
#77 COc1cc(/C=N/NC(N)=S)ccc1OCC(=O)Nc1ccc(C)cc1
  ?, ?
#78 CCOC(=O)c1c(NC(=O)COC(=O)c2ccccn2)sc(C(=O)N(C)C)c1C
  i, -23%
#79 Cc1nc(-c2ccc(F)cc2)c(CC(=O)N(C)CC(=O)Nc2ccccc2C(F)(F)F)s1
  i, -18%
#80 CCCC12CN3CC(C)(CN(C1)C3c1ccc(OCc3ccccc3)cc1)C2=O (stereo not given)
  -7%, -13%
#81 CCOC(=O)c1cnn(-c2ccc(C(C)C)cc2)c1NC(=O)C1CCC1
  ., -23%
#82 COc1ccc2c([N+](=O)[O-])c(N3CCOCC3)[nH]c2c1
  1%, -4%
#83 CCOc1ccc(S(=O)(=O)NCc2cccnc2)cc1NC(=O)c1ccccc1
  -9%, -6%
#84 COc1ccccc1-n1cnc(N)c1C(C)=O
  -24%, -16%
#85 CCOC(=O)C1=C[C@@H](C(C)(C)C)N(S(=O)(=O)c2ccc(C)cc2)[C@H]1c1ccccc1
  i, -6%
#86 CC(=O)NCCCc1nc2ccccc2n1Cc1ccccc1F
  -12%, -9%
#87 COc1ccc(NC(=O)c2ccc(-n3cccn3)c([N+](=O)[O-])c2)cc1
  i, -6%
#88 CNc1ncnc2c1ncn2[C@H]1CN(CCOC)C[C@@H](CO)O1
  -1%, 3%
#89 Cc1ccc(N(C)C(=O)CCS(=O)(=O)c2ccc3c(c2)oc(=O)n3C)cc1
  -16%, -14%
#90 COC(=O)Nc1snnc1C
  ., ?

Compound profiles, as listed above. Values in the order: Vaccinia mCherry | VACV Venus inh
Listed for CCOC(=O)c1cnn(-c2ccc(C(C)C)cc2)c1NC(=O)C1CCC1 : . | -23%
Listed for CCOC(=O)C1=C[C@@H](C(C)(C)C)N(S(=O)(=O)c2ccc(C)cc2)[C@H]1c1ccccc1 : i | -6%
Listed for Cc1ccc(N(C)C(=O)CCS(=O)(=O)c2ccc3c(c2)oc(=O)n3C)cc1 : -16% | -14%
Listed for COc1ccccc1-n1cnc(N)c1C(C)=O : -24% | -16%
Listed for COc1ccc2c([N+](=O)[O-])c(N3CCOCC3)[nH]c2c1 : 1% | -4%

(next part)
Order of results – Vaccinia mCherry, VACV Venus inh
#91 CC(=O)Nc1scc(C)c1-c1nc2ccccc2s1
  -17%, -7%
#92 CCC(=O)c1cc2c(cc1NC(=O)c1cccs1)OCCO2
  i, -6%
#93 CSc1ccc(C#N)cc1NC(=O)c1ccc(Cl)cc1Cl
  -12%, -10%
#94 O=C(/C=C/c1cccs1)Nc1nccs1
  i, -7%
#95 O=[N+]([O-])c1ccc2[nH]c(O)c(N=NC3CCS(=O)(=O)C3)c2c1 (stereo not given)
  i, -5%
#96 O=C(NC1CCCCC1)c1cccc(S(=O)(=O)N2CCOCC2)c1
  ., 15%
#97 Cc1nc2nc(N)nn2c(C)c1C/C=C/c1ccccc1
  i, -9%
#98 COc1cc(NC(=O)[C@@H]2CCCN2S(=O)(=O)c2cccc3cccnc23)cc(OC)c1OC
  i, -12%
#99 CC(C)(C)c1cc[n+](/C(C(=S)Nc2ccccc2F)=C(/[O-])c2ccc3c(c2)OCCO3)cc1
  -8%, -6%
#100 Cc1cc(Cl)ccc1Nc1ncccc1C(N)=O
  -3%, -6%
#101 COC(=O)c1ccc(CSc2nc3c(c(=O)n2-c2ccc(Br)cc2)SCC3)o1
  -3%, 0%
#102 O=C1CN(C(=O)c2ccc3nc(Cc4cccc(Cl)c4)oc3c2)CCN1
  -18%, -3%
